VDR inhibitor: inhibitors of human vitamin D receptor; P11473; Potency, µM, for inactives: max response, negative = inhibition, usual class: inhibitors; 0.93% of 400,000 active; AID 504847; VDR-SRC2-3 peptide fluorescence polarization, 2 h; active = well fitted inhibition curve with a large enough effect; inconclusive = small, poorly fitted or top-dose-only effect, or another doubt; inactive = no such curve, though single readings can be large or run the other way; note: series mostly up to about 120 µM
Target sequence (P11473 whole entry, looked up): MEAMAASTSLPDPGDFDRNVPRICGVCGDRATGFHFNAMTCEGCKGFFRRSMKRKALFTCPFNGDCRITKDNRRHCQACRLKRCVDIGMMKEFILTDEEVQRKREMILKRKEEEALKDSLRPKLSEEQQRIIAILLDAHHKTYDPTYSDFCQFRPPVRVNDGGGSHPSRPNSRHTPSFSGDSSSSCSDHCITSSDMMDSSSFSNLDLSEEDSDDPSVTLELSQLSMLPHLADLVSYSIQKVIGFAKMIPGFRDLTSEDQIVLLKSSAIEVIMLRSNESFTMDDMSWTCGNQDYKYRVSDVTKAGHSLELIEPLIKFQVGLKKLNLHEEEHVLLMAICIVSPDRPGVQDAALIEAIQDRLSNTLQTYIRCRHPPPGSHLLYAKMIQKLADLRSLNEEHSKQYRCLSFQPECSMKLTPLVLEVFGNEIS
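Signal is fluorescence polarization, reporting how far test compounds block the interaction of VDR with the SRC2-3 coregulator peptide after a 2 h room-temperature incubation.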
The depositor's hits bear a star; ? = inconclusive. % is set by controls: 0 for no effect and ±100 for the full control effect; potency is the fitted concentration of half-maximal effect.

mol,VDR inhibitor
Cc1cc(C)n2c(SC/C(O)=C(\C#N)c3nc4ccccc4[nH]3)nnc2n1,9.8%
O=C(NCc1ccccn1)c1cc2n(n1)C(C(F)(F)F)CC(c1ccco1)N2 (configuration not stated),10.9%
CCCC(=O)Nc1c(-c2cccc(OC)c2)c(=O)c2ccccc2n1C,4.8%
COCCCn1c(=NC(=O)c2ccccc2)c(C#N)cc2c(=O)n3cccc(C)c3nc21,5.5%
CCN(CC)C(=O)c1sc2c(c1C)c(=O)n(CCc1ccccc1)c(=O)n2Cc1cc(C)ccc1C,-6.2%
O=C(Nc1cccc(Cl)c1)c1cc(S(=O)(=O)N2CCCCC2)c[nH]1,6.1%
Cc1cccc(NC(=O)CSc2nc3sc(C)cc3c(=O)n2C)c1,-29.3%
CC(=O)NS(=O)(=O)c1ccc(NC(=S)NC(=O)CC(C)C)cc1,5.0%
COc1ccc(-c2nc(CN3CCC(C(=O)NCCc4ccccc4)CC3)c(C)o2)cc1OC,-15.1%
O=C(NCc1cccnc1)C1CC(=O)N(c2ccc(F)cc2)C1 (configuration not stated),-3.7%
COc1cc(C(=S)N2CCCC2)cc(Cl)c1OCC(=O)Nc1ccc(C)cc1C,?
COc1ccc(-c2noc(CC(=O)N(C)c3cccc(C)c3)n2)cc1,10.9%
Cc1ccc(NC(=O)c2cc(C)nc3ccccc23)cc1,6.4%
CCCCCCCC/C=C/CCCCCCCCOP(=O)([O-])OCC[N+](C)(C)C,-23.0%
COc1ccc(-n2nc(C(=O)NCC(=O)N3CCN(c4ccccn4)CC3)c3ccccc3c2=O)c(OC)c1,9.6%
Nc1nc(NS(=O)(=O)c2ccc(Cl)cc2)nn1-c1ccccc1,0.6%
COc1ccc(C(CNC(=O)c2cc(C)on2)N(C)C)cc1 (configuration not stated),-1.1%
CCC(=O)N1CCc2cc(S(=O)(=O)CCC(=O)NCCC3=CCCCC3)ccc21,-0.3%
COC(=O)c1ccccc1OC(=O)c1cccnc1,-12.3%
O=C(O)c1ccc(CNCc2ccc(Cl)cc2)cc1,3.1%

mol,VDR inhibitor
COC(=O)[C@@]1(Cc2ccccc2)[C@H]2C(=O)N(Cc3ccccc3)C(=O)[C@H]2[C@H]2CN=C(SCc3ccc(Cl)cc3)N21,3.4%
Cc1ccc(N2N=C(C(=O)O)CCC2=O)cc1Cl,-6.3%
Cc1ccc(C(=O)Nc2cc3ccccc3oc2=O)cc1,-0.9%
COc1ccc(C(=O)NCc2cccnc2)cc1OC,-10.4%
Cc1cc(SCC(=O)c2ccccc2)n2nc(C)nc2n1,-20.8%
O=C(Nc1ccc(OCC(=O)N2CCOCC2)cc1)Nc1cccc2ccccc12,0.5%
C/C(=N\NC(=O)c1ccc([N+](=O)[O-])cc1Cl)c1ccccc1,7.1%
C[N+]1(CC(O)COc2ccccc2)CCN(C(=O)c2ccc([N+](=O)[O-])cc2)CC1 (configuration not stated),1.6%
CCc1ccc(CNC(=O)c2nn(-c3ccc(OC)c(Cl)c3)c(=O)c3c2c2ccccc2n3C)cc1,-9.8%
CCOC(=O)N1CCC(NC(=O)C2CCN(S(=O)(=O)c3cnc[nH]3)CC2)CC1,-10.5%
Cc1ccc(C)c(S(=O)(=O)N2CCN(C(=O)[C@H](C)N3C(=O)C4CC=CCC4C3=O)CC2)c1 (some centres not stated),2.6%
COc1ccc(-n2nc3c(N4CCCC(C(=O)NCc5ccc(C)cc5)C4)nnc(C)c3c2C)cc1 (configuration not stated),10.6%
Nc1cc2c3ccccc3ccc2c2ccccc12,?
COc1cccc(-c2cncnc2Nc2ccccc2)c1,39.8µM*
COc1ccc(OC)c(N/C=C/C(=O)c2ccccc2)c1,-12.1%
CC(C)(C)OC(=O)NCCc1nnc(SCC(=O)c2ccc(Cl)cc2)o1,-22.0%
CC(=O)Nc1ccc(NC(=O)c2c(C)nn(Cc3ccccc3Cl)c2C)cc1,29.8%
COc1cccc(CNc2ncnc3ccc(-c4c(C)noc4C)cc23)c1,-8.8%
N#Cc1c(N)sc(=S)c2c1CCCC2,-10.0%
Nc1ncc(Br)cc1S(=O)(=O)NCCC(=O)NCCc1ccccc1,-8.5%

mol,VDR inhibitor
CN1CCN(c2ccc([N+](=O)[O-])cc2S(=O)(=O)N2CCOCC2)CC1,-0.7%
CCOC(=O)C1(Cc2ccc(Cl)cc2)CCN(C(=O)c2cc(C)nc(C)n2)CC1,3.9%
COc1ccc(CCNC(=O)c2cc(-c3cc(C)cc(C)c3O)n[nH]2)cc1OC,4.0%
CCN(CC)CCCNC(=S)N(Cc1cccnc1)Cc1cc2cc(C)ccc2[nH]c1=O,4.9%
Cc1ccc(CN(Cc2ccco2)C(=O)COc2ccc(Cl)cc2Cl)cc1,1.4%
NS(=O)(=O)c1cccc(NC(=O)COC(=O)/C=C/c2ccco2)c1,-5.1%
O=C(NCc1ccc(F)cc1)Nc1ccccc1,-5.5%
CC(C)NC(=O)N(C)C[C@H]1Oc2ccc(NC(=O)Nc3ccccc3)cc2C(=O)N([C@@H](C)CO)C[C@@H]1C,5.8%
CCc1ccccc1NC(=O)c1ccc([N+](=O)[O-])s1,-11.7%
CCc1ccc(C2C(C#N)=C(N)N(N(C)C)C3=C2C(=O)CCC3)s1 (configuration not stated),-12.7%
CC(C)CCN1CCN(Cc2cccc3cccnc23)CC1CCO (configuration not stated),-2.7%
O=C(/C=C/c1ccc(Cl)cc1)c1ccc([N+](=O)[O-])o1,11.2µM*
O=c1n(Cc2ccc([N+](=O)[O-])cc2)c2ccccc2c2nc(-c3ccccc3)nn12,10.3%
CCNC(=O)CP(=O)(c1ccccc1)c1ccccc1,2.6%
O=C(CSc1n[nH]c(-c2ccco2)n1)Nc1ccc(F)cc1,5.7%
C=C[C@@H]1c2c(F)cccc2N(S(=O)(=O)c2ccc(C)cc2)[C@H](c2ccc(C(=O)OC)cc2)C1(C#N)C#N,-5.9%
O=C(Nc1cccc(Cl)c1)Nc1nnc(CC2=CCCCC2)s1,-1.9%
COc1ccccc1CNS(=O)(=O)c1cc2c3c(c1)CCC(=O)N3CCC2,6.7%
CC(=O)c1ccc(N2CCN(S(=O)(=O)c3cn(C)cn3)CC2)cc1,-11.4%
CCc1sc(Nc2cccc(Cl)c2C)nc1-c1cc2cccc(OC)c2oc1=O,-6.6%

An excerpt of these results, with the structure last:
VDR inhibitor | molecule
4.0% | COc1ccc(CCNC(=O)c2cc(-c3cc(C)cc(C)c3O)n[nH]2)cc1OC
10.3% | O=c1n(Cc2ccc([N+](=O)[O-])cc2)c2ccccc2c2nc(-c3ccccc3)nn12

Continuation.
mol,VDR inhibitor
Cc1cccc(-c2noc(Cc3ccccc3)n2)c1,-15.4%
CCN1CCN(C(=O)c2cc(COc3ccc(C(C)=O)cc3OC)on2)CC1,15.7%
COc1ccc(N2CCN(C(=O)CCc3nnc4n(C)c(=O)c5sccc5n34)CC2)cc1,-3.8%
CC(=O)N/C(=C\c1ccccc1)C(=O)OCC(=O)Nc1ccc(C)c(S(=O)(=O)N(C)C)c1,-11.0%
Cc1ccc(Nc2c(-c3ccccn3)nc3cccc(C)n23)cc1,-14.7%
COc1cc(C(=O)NCC(=O)N/N=C(/C)c2cccs2)cc(OC)c1OC,-9.5%
COc1ccc(S(=O)(=O)N2CCN(c3ccccc3F)CC2)cc1-c1noc(C)n1,4.9%
CCOc1ccc(/C=C/c2nc(C#N)c(N3CCN(c4ccccc4)CC3)o2)cc1,-0.9%
COc1cc(/C=C2\SC(=S)N(NS(=O)(=O)c3ccc(C)cc3)C2=O)cc(OC)c1OC,?
O=C(Nc1ccccc1)c1nccn1Cc1ccc(F)cc1,-10.6%
Cc1ccccc1OCC(=O)OCC(=O)NCc1cccs1,-8.2%
CN(C)Cc1c(C(=O)N/N=C/c2cccc(OCc3ccccc3)c2)nnn1-c1nonc1N,-1.0%
Nc1ncnc2c1ncn2C1CCCC(CO)O1 (configuration not stated),-5.2%
CCCCCn1c(C(C)NC(=O)CCC)nc2ccccc21 (configuration not stated),-3.3%
CN1/C(=C/C(=S)NC(=O)C2CCC2)C(C)(C)c2ccccc21,-19.4%
COc1ccc2c(c1)CCC1[C@@H]2CCC2(C)[C@@H](NCCCCCCN3C(=O)C=CC3=O)CC[C@@H]12 (some centres not stated),0.0%
COc1cc2nc(CN3C(=O)c4ccccc4C3=O)oc(=O)c2cc1OC,-3.1%
Cc1ccc(OCC(=O)NNC(=O)c2ccco2)c(C)c1,13.5%
COc1ccc(NS(=O)(=O)c2ccc(NC(C)=O)cc2)cc1OC,-11.4%
CC[C@@]1(C(=O)OC)N[C@H](CN(C)C(C)=O)[C@@H]2C(=O)N(Cc3ccccc3)C(=O)[C@@H]21,-17.4%

Compound	VDR inhibitor
Cc1c(C(=O)NCCC2=CCCCC2)oc2ccc(S(=O)(=O)N3CCC4(CC3)OCCO4)cc12	2.3%
O=C(CSc1nc2ccsc2c(=O)n1-c1ccc(Cl)cc1)NCc1ccc(Cl)cc1	3.1%
CCOC(=O)c1c(NC(=O)CN2C(=O)C(=O)N(CC(C)C)C2=O)sc(C)c1CC	-0.8%
CCN(CC)C(=O)CSc1nc(-c2ccccc2)cc(-c2ccc(OC)cc2)c1C#N	0.4%
C=CC[C@@H](CC(=O)N(CCO)Cc1ccccc1)C(=O)N[C@H](COC(=O)[C@@H](CC=C)CC(=O)OC(C)(C)C)Cc1ccccc1	11.1%
COc1ccc(-n2cc(-c3ccccc3)c3c(NCc4cccc(Cl)c4)ncnc32)cc1	13.2%
CCOC(=O)c1cc(NC(=O)NC2CCCCC2)c(C)nc1C	-16.1%
Cc1c(Cl)cccc1NC(=O)CSc1nncn1-c1cccnc1	-2.6%
Cc1c(C)c2ccc(OCC(=O)NCCCn3ccnc3)cc2oc1=O	-9.2%
COc1ccc(OCCC(=O)OCC(=O)NC2CCCCCCC2)cc1	3.9%
O=C(N/N=C/c1cc(Cl)cc([N+](=O)[O-])c1O)c1ccc2c(c1)OCO2	-23.3%
CCCCCCCCc1nnc(N)s1	-0.7%
N#Cc1c2n(c(=S)n(-c3ccc(F)cc3)c1=O)CCCCC2	9.5%
CCCCNC(=O)CNC(=S)N(Cc1ccccc1)Cc1cccs1	16.8%
CCOC(=O)Cn1c(=O)cc(C)c2c(C)nn(-c3cccc(F)c3)c21	2.6%

Some of the entries so far, field by field:
> CCCCCCCCc1nnc(N)s1
- VDR inhibitor: -0.7%
> N#Cc1c2n(c(=S)n(-c3ccc(F)cc3)c1=O)CCCCC2
- VDR inhibitor: 9.5%
> CCCCNC(=O)CNC(=S)N(Cc1ccccc1)Cc1cccs1
- VDR inhibitor: 16.8%
> CCOC(=O)Cn1c(=O)cc(C)c2c(C)nn(-c3cccc(F)c3)c21
- VDR inhibitor: 2.6%

Remaining list, next part
Compound	VDR inhibitor
Nc1ccccc1Oc1c(F)c(F)c(Oc2ccccc2N)c(F)c1F	-1.5%
O=C(Nc1ccc(-c2cn3cccnc3n2)cc1)c1cc(Br)ccc1Cl	-4.0%
CN(C)c1ccc(-c2ccc3ncnc(NC4CC4)c3c2)cc1	?
Cn1c(=O)cc(OCCCC(=O)Nc2ccccn2)c2ccccc21	-10.4%
CCc1ccc(OCCNC(=O)OCc2ccccc2)cc1	4.0%
CSCCC(NS(=O)(=O)c1ccc2c(c1)oc(=O)n2C)C(=O)NC1CCCCC1 (configuration not stated)	-19.1%
OC1Cc2ccccc2C1Nc1cccc(C(F)(F)F)c1 (configuration not stated)	0.0%
COc1ccc(OC)c(C2c3[nH]c4ccccc4c3C[C@H]3C(=O)N(C4CC4)CC(=O)N23)c1 (some centres not stated)	-6.6%
COCCn1c(SCC(=O)Nc2cccc(C)c2)nnc1C(C)C	17.3%
Cc1ccc(C(=O)c2cn(Cc3c(F)cccc3Cl)c3nc(C)ccc3c2=O)cc1	-16.5%
COc1ccc(C(=O)CSc2nnc(CNc3ccc(F)cc3)o2)cc1	-2.3%
COc1ccccc1OCC(=O)OCC(=O)NCCN1C(=O)CSC1=O	22.6%
COc1ccc(NC(=O)CN2C(=O)C(=O)N(C3CCCC3)C2=O)c(OC)c1	15.0%
O=C(O)COc1ccccc1/C=C1\SC(=S)N(c2cccnc2)C1=O	-8.8%
CCC1Cc2cc(O)ccc2C2=C1c1ccc(O)cc1CC2CC (configuration not stated)	?

Compound	VDR inhibitor
OCCC1CN(Cc2cccs2)CCN1Cc1ccccc1 (configuration not stated)	-10.0%
CC1(C)S[C@@H]2[C@H](NC(=O)COc3ccccc3)C(=O)N2[C@H]1C(=O)O	8.4%
CCC(=O)N(Cc1ccco1)c1nc(-c2ccccc2)cs1	-1.9%
Cc1cccc(NC(=O)Cn2cc(S(=O)(=O)N3CCCC3)c(S(=O)(=O)N3CCCC3)c2)c1C	0.6%
O=C(NC1CCCC1)C(c1ccsc1)N(C(=O)Cc1cccs1)c1ccccc1 (configuration not stated)	12.2%
CCCCNC(=O)C(NS(=O)(=O)c1cccc2nsnc12)c1ccccc1 (configuration not stated)	-4.9%
CCOC(=O)c1csc(CCNC(=O)c2oc3c(Cl)cc(C)cc3c2C)n1	-10.5%
Cc1ccc(S(=O)(=O)Nc2ccc(-n3cnnn3)cc2)c(C)c1	-2.2%
Fc1cccc(CNc2ncnc3ccc(-c4ccc5c(c4)OCO5)cc23)c1	-2.5%
COc1ccc(-c2cc(-c3ccccc3)c(C#N)c(S(C)(=O)=O)n2)cc1	-4.1%
CCn1c(Sc2ccc(N)cc2Cl)nc2ccccc21	0.8%
Cc1cc(C(=O)N/N=C/c2ccc(O)c([N+](=O)[O-])c2)c(C)n1-c1ccc(F)cc1	-3.6%
COc1cc(C)c(CNC2CCCCC2)cc1C	25.5%
O=C(O)CSc1nc2ccccc2n1C1CCCCC1	-5.8%
CCOC(=O)c1ccc(N2CCCCC2)c(NS(=O)(=O)c2cccc(C(F)(F)F)c2)c1	-7.8%

High-throughput results: PubChem BioAssay, National Center for Advancing Translational Sciences (NCATS)

The list is partial; rates above refer to the full screens.
